VDR inh = vitamin D3 receptor (human) inhibition | Potency, µM, inactives show max response, negative = inhibition, most hits filed as inhibitors | hit rate 0.93% among 400,000 | AID 504847 | VDR-SRC2-3 peptide fluorescence polarization, 2 h | P11473; active means well fitted inhibition curve with a large enough effect; inconclusive means small, poorly fitted or top-dose-only effect, or another doubt; inactive means no such curve, though single readings can be large or run the other way; further: series mostly up to about 120 µM
Target sequence (P11473 whole entry, looked up): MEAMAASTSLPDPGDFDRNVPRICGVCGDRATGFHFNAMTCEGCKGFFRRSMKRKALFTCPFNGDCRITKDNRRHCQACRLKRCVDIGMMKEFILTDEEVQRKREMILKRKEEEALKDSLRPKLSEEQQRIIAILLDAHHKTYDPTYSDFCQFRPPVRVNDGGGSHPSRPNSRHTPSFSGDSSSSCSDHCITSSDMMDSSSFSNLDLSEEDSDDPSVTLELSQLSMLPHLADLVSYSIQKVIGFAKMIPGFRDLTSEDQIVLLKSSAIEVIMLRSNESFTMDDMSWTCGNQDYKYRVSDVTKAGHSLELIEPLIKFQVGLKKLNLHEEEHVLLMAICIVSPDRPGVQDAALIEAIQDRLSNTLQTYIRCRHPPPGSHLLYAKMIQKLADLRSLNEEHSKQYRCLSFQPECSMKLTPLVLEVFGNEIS
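Fluorescence polarization assay measuring small-molecule disruption of VDR binding to the coregulator peptide SRC2-3. Compounds were pin-transferred (23 nl) into the reagent mix and incubated 2 h at room temperature before reading.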
The depositor's hits bear a star; ? = inconclusive; & = joins results of further samples; [ ] = remark or other dose. On the % scale 0 is the no-effect control and ±100 the full control effect; potency means the concentration at half of the fitted maximal effect.

| VDR inh | compound |
| --- | --- |
| ? | Cc1ccc(C(=O)N/C(=C\c2ccc3c(c2)OCO3)C(=O)N2CCOCC2)cc1 |
| -4.9% | CC(C)c1ccccc1NC(=S)NCc1ccccc1F |
| 14.2% | COc1ccc(Br)cc1CN(C)C(=O)c1cc(Cl)c2c(c1)OCCO2 |
| -26.2% | COc1ccc2cc(C3CC(c4ccco4)=NN3C(=O)CCC(=O)O)c(Cl)nc2c1 (centres undefined) |
| -1.1% | CC(C)(C)C(=O)[C@H]1[C@H](c2ccccc2)[C@@]2(N=C(c3ccccc3)OC2=O)C2c3ccccc3C=NN21 (some centres undefined) |
| 2.2% | O=S(=O)(NCCN1CCOCC1)c1cccc(C(F)(F)F)c1 |
| 4.4% | Cc1ccc(C)c(N2CCN(C(=O)Cc3ccc(NC4=NC5CS(=O)(=O)CC5S4)cc3)CC2)c1 (centres undefined) |
| 0.4% | C[C@H](NC(=O)C1CCN(S(=O)(=O)c2ccccc2)CC1)C(=O)NCc1ccc(Cl)c(Cl)c1 |
| 5.1% | O=C(N[C@@H](Cc1c[nH]c2ccccc12)C(=O)NC1CC1)c1ccccc1Cl |
| -18.2% | CCOc1ccc(NC(=O)CN(C)CC(=O)NC2CCCc3ccccc32)cc1OCC (centres undefined) |
| 43.3%[activator] | COc1ccc(C(=O)Nc2ccccc2NC(=O)c2ccco2)cc1OC |
| 11.3% | Cc1cc(C)c(NC(=O)CN2C(=O)CC(C)S(=O)(=O)c3ccccc32)c(C)c1 (centres undefined) |
| ? | CN(C)C(=O)c1ccc(-c2cncnc2Nc2ccccc2)cc1 |
| -20.6% | O=C(/C=C/c1ccc(Br)cc1)NC(=S)Nc1ccc(S(=O)(=O)Nc2nccs2)cc1 |
| 8.7%&-4.3%&2.7% | CNC[C@H](O)c1cccc(O)c1 |
| -21.6% | CC(=O)NC12CC3CC(C1)CC(C(=O)N1CCN(c4ncccn4)CC1)(C3)C2 |
| 2.4% | Cc1noc(C)c1COc1ccccc1C(=O)NNC(=O)c1ccc(F)cc1 |
| -6.6% | O=C(CSc1nnc(-c2ccncc2)s1)Nc1ccccc1 |
| 8.5% | CC(C)=CC1C(C(=O)O)C1(C)C (centres undefined) |
| 15.0% | Cc1cccc(NC(=O)[C@@H](CC(C)C)NC(=O)[C@@H]2Cc3ccccc3CN2)c1 |
| -19.8% | COc1ccc(Cc2nnc(NC(=O)c3ccc(OC(C)=O)cc3)s2)cc1OC |
| 9.9% | Cc1cc(O)c(C(c2ccccc2)N2CCCCC2)c(=O)n1Cc1ccco1 (centres undefined) |
| -10.0% | CC(C)c1ccc(NC(=O)CCN2C(=O)[C@@H]3Cc4ccccc4CN3C2=O)cc1 |
| -5.2% | CN(CC1CCOCC1)C(=O)CC1C(=O)NCCN1Cc1cccc(F)c1 (centres undefined) |
| -8.8% | COc1ccc(C(=O)N2CCN(S(=O)(=O)c3ccc(C)cc3)CC2)cc1S(=O)(=O)N1CCOCC1 |
| 16.2% | CNC(=S)Nc1ccc2nc(C)c(C)nc2c1 |
| -22.3% | O=c1oc2cc(OCc3c(F)c(F)c(F)c(F)c3F)ccc2cc1-c1ccccn1 |
| -11.6% | O=C(CN1CCc2ccccc2C1)Nc1cc(S(=O)(=O)N2CCOCC2)ccc1N1CCOCC1 |
| -19.2% | S=C(Nc1ccc2nc(-c3ccccn3)c(-c3ccccn3)nc2c1)N1CCCCC1 |
| -1.3% | CC1(C)c2ccccc2-c2nc3ccccc3cc2C1O (centres undefined) |
| 14.9% | CCn1cc(C(=O)NCc2ccc(C)cc2)c(=O)c2cc(S(=O)(=O)N3CCCCCC3)ccc21 |
| -10.6% | COc1ccc(N(CC(=O)Nc2ccc(C)cc2)S(=O)(=O)c2c(C)noc2C)cc1 |
| -10.9% | Cc1csc2c(N3CCN(C(=S)Nc4ccc(C(F)(F)F)cc4)CC3)ncnc12 |
| 6.0% | CN(C)c1ccc(/C=N/Nc2nc3ccccc3o2)cc1 |
| 9.4% | Cc1ccc(CN(Cc2cc3cccc(C)c3[nH]c2=O)C(=S)NCCCN(C)C)cc1 |
| -13.5% | Cc1ccc(C(=O)Nc2c3c(nn2C(C)(C)C)CS(=O)(=O)C3)cc1C |
| 1.6% | C=CCSc1nnc(CCc2ccccc2)n1N |
| ? | CCSc1nnc(NC(=O)c2nc(S(=O)(=O)Cc3ccc(F)cc3)ncc2Cl)s1 |
| 0.4% | CCOc1ccc(OCCSc2nc(-c3ccccc3)cc(=O)[nH]2)cc1 |
| -7.1% | O=C(CN1C(=O)C2CC=CCC2C1=O)Nc1ccc(S(=O)(=O)N2CCOCC2)cc1 (centres undefined) |
| 17.0% | COC(=O)c1ccc(NC(=O)NCCCl)cc1 |
| -2.3% | COc1cc(OC)cc(-c2sc3ccc(OC)cc3c2-c2ccc(O)cc2)c1 |
| -5.7% | COc1cc(C(=O)NCCSc2ccc(Br)cc2)cc(OC)c1OC |
| 3.1% | Cc1ccc(S(=O)(=O)NC(=O)c2cc(C)n(CC(c3ccccc3)N(C)C)c2C)cc1 (centres undefined) |
| 2.7% | Cc1ccc(-n2ncc(C(=O)NCCN3CCCC3)c2C2CCN(C(=O)OC(C)(C)C)CC2)cc1 |
| -29.0% | COc1ccc(C2(O)C(=O)Nc3ccc(C)cc32)cc1OC (centres undefined) |
| -8.9% | CC12CCC(=O)C=C1CCC1C2C(O)CC2(C)C(c3csc(N)n3)CCC12 (centres undefined) |
| 23.4% | COc1ccc(CNC(N)=O)cc1 |
| 2.4% | Cn1c2c(c(=O)n(C)c1=O)[C@@H]1c3c(ccc4ccccc34)OC[C@@H]1CO2 |
| -4.7% | Cn1cccc1C(=O)OCc1ccc(C(C)(C)C)cc1 |
| -20.0% | COc1ccc(C(=O)/C(C)=N/O)cc1OC |
| 4.9% | C=CCNC(=S)N(CC=C)C1CCS(=O)(=O)C1 (centres undefined) |
| -4.5% | COc1ccc(-c2cn(CCC(=O)O)c(C)n2)cc1 |
| 23.9% | CCCc1cc(=O)[nH]c(SCC(=O)N2CCN(c3ccccc3OC)CC2)n1 |
| -5.4% | COc1ccc(S(=O)(=O)N(CC(=O)NC2CC2)C2CCCCC2)cc1Cl |
| 9.1% | O=C(COc1ccc(Cl)cc1)NCC(=O)N/N=C/c1cccs1 |
| 7.8% | CCOC(=O)c1c(C)c(C(=O)NCc2ccc(Cl)cc2)c(C)n1C |
| -5.7% | CCNC(=S)N1CCN(c2cccc(C(F)(F)F)c2)CC1 |
| ? | CCOC(=O)/C=C/C(=O)Nc1ccccc1-c1ccccc1NC(=O)/C=C/C(=O)OCC |
| 4.3% | Nc1c(C(=O)CSc2nnc(-c3ccccc3F)o2)c(=O)[nH]c(=O)n1C1CC1 |

Continued.
| VDR inh | compound |
| --- | --- |
| -0.7% | CNC(=S)N1CCN(c2ccccc2OC)CC1 |
| -0.2% | Cc1cccc(C(=O)NNS(=O)(=O)c2ccccc2[N+](=O)[O-])c1 |
| 10.2% | CC(=O)c1ccc(N2C(=O)[C@@H]3C(CCC(N)=O)NC4(C(=O)Nc5c4ccc(Cl)c5C)[C@@H]3C2=O)cc1 (some centres undefined) |
| -1.5% | O=C(Cc1cccs1)Nc1ccc(-c2nc3ccccc3[nH]2)cc1 |
| -6.6% | O=C(O)c1cc(S(=O)(=O)Nc2cc(Cl)ccc2Oc2ccccc2)ccc1O |
| 0.5% | COc1ccc(-c2noc3c2-c2nc(-c4ccc(C)cc4)sc2CC3)cc1 |
| 8.8% | CC(C)c1ccc(NC(=O)c2cc(S(=O)(=O)N3CCc4ccccc4C3)ccc2F)cc1 |
| 3.2% | CCOC(=O)c1sc(NC(=O)CNC(=O)Cn2cnc3sc(C)c(C)c3c2=O)nc1C |
| 8.6% | CCN(CC)C(=O)[C@H]1C[C@H](CC(=O)NCCc2ccccn2)C(=O)N2CCc3c([nH]c4cc(CCC(=O)N(C)C)ccc34)[C@]12C |
| -2.4% | Cc1cc(OCc2nnc(SCC(=O)O)n2-c2ccccc2)ccc1Cl |
| -14.4% | COc1ccc(NC(=O)c2nc(-c3ccc(C)cc3)n3c2CCCCC3)c(OC)c1 |
| 3.4% | CC(=C/c1ccco1)/C=N/NC(=O)c1nnn(-c2nonc2N)c1CN(C)C |
| -1.4% | COc1ccc(S(=O)(=O)Nc2ccc3c(c2)N(C(C)=O)CCC3)cc1 |
| 4.3% | Cc1ccc(C(=O)c2c3ccccc3[n+]([O-])n2CCO)cc1 |
| 15.0% | O=C(NCc1ccco1)c1ccc2c(c1)N(Cc1cccc(Cl)c1)C(=O)c1ccccc1S2(=O)=O |
| -12.4% | COc1cccc(Cn2c(=O)cnc3cnc(N4CCN(C)CC4)nc32)c1 |
| 9.4% | Cc1cc(NC(=O)CSc2nc(-c3cccs3)nc3ccccc23)no1 |
| -4.2% | CCCCC(=O)OCC(=O)N1N=C(c2c[nH]c3ccccc23)C(O)C1c1ccc(OC)cc1 (centres undefined) |
| -5.6% | Cn1nc(C(F)(F)F)cc1-c1ccc(/C=C(\C#N)C(=O)c2cccc(C(F)(F)F)c2)s1 |
| -13.1% | Cc1ccc(NC(=O)CN(C(=O)N2CCN(C)CC2)S(=O)(=O)c2ccc(C)cc2)cc1 |
| -22.1% | Cc1ccc(OCC(O)CN2CC3(C)CC2CC(C)(C)C3)cc1 (centres undefined) |
| 13.3% | COc1ccc(NC(=O)CNc2ccccc2C(C)=O)cc1S(=O)(=O)N1CCOCC1 |
| -0.7% | Cc1cccnc1NC(=O)C1CCN(S(=O)(=O)c2ccc3ccccc3c2)CC1 |
| -23.3% | COCCOC(=O)c1[nH]c2c(c1C)C(=O)CC(c1cccs1)C2 (centres undefined) |
| -11.4% | CC(C)C[C@H](N)c1cn([C@@H](CCCCN)C(=O)N2CCNCC2)nn1 |
| 9.1% | COc1ccc(N2CCN(c3cc(C)c4ccc(O)cc4n3)CC2)cc1 |
| -19.7% | CCOc1ccc(C(=O)NNC(=O)CN2C(=O)C3CC=CCC3C2=O)cc1OC (centres undefined) |
| -2.8% | Cc1oc(-c2cccc(F)c2)nc1CN1CCCCC1CCc1ccccn1 (centres undefined) |
| 2.2% | CC(C)NC(=O)CC(=O)N/N=C/c1c(F)cccc1Cl |
| 3.3% | CC(C)OCCCN1CC(=O)N2C(c3ccccc3)c3[nH]c4ccccc4c3C[C@H]2C1=O (some centres undefined) |

An excerpt of these results, with each value named.
COc1cccc(Cn2c(=O)cnc3cnc(N4CCN(C)CC4)nc32)c1
  VDR inh: -12.4%

CC(=C/c1ccco1)/C=N/NC(=O)c1nnn(-c2nonc2N)c1CN(C)C
  VDR inh: 3.4%

Cc1oc(-c2cccc(F)c2)nc1CN1CCCCC1CCc1ccccn1 (centres undefined)
  VDR inh: -2.8%

CCOC(=O)c1sc(NC(=O)CNC(=O)Cn2cnc3sc(C)c(C)c3c2=O)nc1C
  VDR inh: 3.2%

Next section:
| VDR inh | compound |
| --- | --- |
| -3.7% | O=C(COC(=O)c1ccc(O)cc1)NC1CCCC1 |
| -14.8% | NS(=O)(=O)c1ccc(CCNC(=O)CNC(=O)c2ccc(Oc3ccccc3)cc2)cc1 |
| 9.0% | COc1ccc(OC)c(CNCc2c(C(=O)O)n(Cc3cccc(F)c3)c3cc(OC)ccc23)c1 |
| 4.1% | CC(C)(C)C(=O)c1cn(CC(=O)O)c2ccccc12 |
| 16.5% | O=C(CSc1ccc(F)cc1)NCCSc1ccccc1 |
| -18.5% | O=C(COC(=O)CNC(=O)c1ccccc1F)NCCNC(=O)COC(=O)CNC(=O)c1ccccc1F |
| -18.9% | O=C(CSc1ccc2c(c1)OCCO2)Nc1ccc(N2CCOCC2)cc1 |
| 2.2% | CC(C)CNC(=S)NC1CC2CCC(C1)N2Cc1ccccc1 (centres undefined) |
| 2.5% | CC(=O)c1ccc(NC(=O)Cn2cc(S(=O)(=O)Cc3ccccc3Cl)c3ccccc32)cc1 |
| 12.9% | CCOC(=O)c1cc(C(=O)OCC)cc(-n2cc(O)c(C(=O)OCC)n2)c1 |
| 4.6% | COc1ccc(OCC#CCNC(C)(C)C)cc1 |
| -4.8% | COCCCNC(=O)c1ccccc1Oc1ccccc1 |
| 0.1% | COc1cc(OC)c(OC)cc1CN1CCN(Cc2ccc(C(F)(F)F)cc2)CC1 |
| -0.2% | CCc1ccc(C(=O)C(C)OC(=O)CNS(=O)(=O)c2ccc(C)cc2)cc1 (centres undefined) |
| 9.2% | COc1ccc(-c2cn3ccc(C)cc3n2)cc1 |
| 7.0% | CCc1nnc(NS(=O)(=O)c2ccc(NC(=O)COc3ccc(Cl)c(C)c3)cc2)s1 |
| -0.5% | CC(c1ccco1)N(C(=O)Nc1ccccc1)C1CCCCC1 (centres undefined) |
| -10.3% | CCC(=O)Nc1ccc(C(=O)NNC(=O)COc2cccc(C)c2)cc1 |
| 6.5% | Cn1ncc(Cl)c1C(=O)N1CCOCC1 |
| 2.4% | COCCOc1cc(NC(=O)c2cccc(OC)c2)c(Cl)cc1Cl |
| 2.0% | CC(=O)N1C(=O)/C(=C2\SC(=S)N(NS(=O)(=O)c3ccc(C)cc3)C2=O)c2ccccc21 |
| 14.3% | COc1ccc(Cl)cc1NC(=O)CNC(c1ccccc1)c1ccccc1 |
| -7.7% | O=C(NC1(C(F)(F)F)N=C2SCCN2C1=O)c1ccco1 (centres undefined) |
| 2.5% | Cn1c(C(=O)NCc2cccnc2)cc2sccc21 |
| 8.2% | FC(F)(F)c1cc(-c2ccco2)nc(NCc2cccs2)n1 |
| 13.2% | CCN(CCCNC(=O)C1CCN(S(=O)(=O)N2CCOCC2)CC1)c1cccc(C)c1 |
| 9.3% | CCOc1ccc(CN2CCCC(CNC(=O)c3ccc(F)cc3)C2)cc1CO (centres undefined) |
| -3.0% | CC1CN(C(=O)CCn2c(=O)oc3ccccc32)CC(C)O1 (centres undefined) |
| 3.5% | COc1cc(-c2ccccc2)nc(N)n1 |
| -21.0% | CCOc1ccc2nc(NC(=O)CN3CCOCC3)sc2c1 |
| -1.5% | COc1cccc(-n2c(=O)c3c(C)c(C(=O)N(C)C)sc3n(Cc3cccc(C)c3)c2=O)c1 |
| 18.0% | CCCCN(CCCNC(=O)C1CCN(S(=O)(=O)N2CCOCC2)CC1)c1ccccc1 |
| -9.1% | COc1ccc2cc(C(=O)/C=C/c3cc(OC)c(OC)c(OC)c3)ccc2c1 |

Source: PubChem BioAssay (National Center for Advancing Translational Sciences (NCATS))

A portion of the library (hit frequency here may not be typical).
